Screening data from PubChem BioAssay.
RecA intein inh: Mtb RecA intein splicing inhibition | P9WHJ3 | cell-free RecA intein splicing, fluorescence | inhibition, %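 (about 9 µM by stock and volumes)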 | 290,000 tested, 0.75% active; in the data active = inhibition above about 30%; inconclusive = no clear call, values can overlap the other calls;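 note: 0% = vehicle wells and 100% = reference inhibitor control wells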
Target sequence (P9WHJ3 whole entry, looked up): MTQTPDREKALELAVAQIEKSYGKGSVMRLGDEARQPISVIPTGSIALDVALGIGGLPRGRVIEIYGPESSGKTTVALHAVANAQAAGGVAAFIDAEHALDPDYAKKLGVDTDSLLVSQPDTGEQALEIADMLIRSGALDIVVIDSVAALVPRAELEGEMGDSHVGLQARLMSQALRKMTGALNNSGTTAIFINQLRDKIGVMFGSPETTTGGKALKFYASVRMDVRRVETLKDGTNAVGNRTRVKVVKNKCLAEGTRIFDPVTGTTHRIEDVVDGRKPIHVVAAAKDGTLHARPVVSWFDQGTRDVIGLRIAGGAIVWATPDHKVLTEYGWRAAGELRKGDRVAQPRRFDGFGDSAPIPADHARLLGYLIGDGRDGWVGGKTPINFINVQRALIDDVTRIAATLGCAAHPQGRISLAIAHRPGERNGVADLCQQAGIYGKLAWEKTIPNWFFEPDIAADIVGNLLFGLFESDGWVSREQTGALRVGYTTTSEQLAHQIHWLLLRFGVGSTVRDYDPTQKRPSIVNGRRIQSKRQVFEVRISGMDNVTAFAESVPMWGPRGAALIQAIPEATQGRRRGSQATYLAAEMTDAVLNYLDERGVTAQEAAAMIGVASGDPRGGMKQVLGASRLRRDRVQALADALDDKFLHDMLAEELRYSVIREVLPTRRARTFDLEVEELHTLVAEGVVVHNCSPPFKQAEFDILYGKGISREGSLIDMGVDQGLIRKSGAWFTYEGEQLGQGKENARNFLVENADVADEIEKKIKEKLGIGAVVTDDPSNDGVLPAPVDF
YopH PTP inh: YopH (Yersinia) phosphatase inhibition; AID 898; fluorescence Ex485/Em525; inhibition, %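 (about 10 µM by stock and volumes)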; 140,000 tested, 0.16% active;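 active = inhibition of 50% or more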;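 note: controls were vehicle for no effect and minimum signal wells for full effect; inactives centre near -20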
Mtb H37Rv: M. tuberculosis H37Rv growth inhibitors, H37Rv strain (AID 1626); M. tuberculosis H37Rv growth inhibition; higher % means a stronger effect; inhibition, % at 10 µM, or IC50 in µM where a hit was titrated; 220,000 tested, 0.95% active;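 active = confirmed in a dose series; inconclusive = inhibition above 80% but not taken into the dose series; inactive = below 80% or under 30% at every dose of the series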;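 note: bacteria incubated seven days before Alamar blue readout; 0% = bacteria only wells and 100% = bacteria with antibiotic wells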
Mtb betalactam: beta-lactam sensitization of Mtb H37Rv | M. tuberculosis H37Rv growth with meropenem, percent inhibition; hits of this screen are not shown here | inhibition, % at 25 µM | 330,000 tested, 0.27% active | AID 434955;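 active = about 74% or more and at least 40 points above the plate without the antibiotic, then above 30% in a dose series; inconclusive = first-round hits that could not be retested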;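 note: growth measured after seven days incubation then overnight dye step; 0% = bacteria only wells and 100% = bacteria with antibiotic; twin plates without the antibiotic show which effects depend on it; some results filed as inactive read as strong as hits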
Arbovirus anti: antivirals against arbovirus infection | inhibition, % at 10 µM | AID 1251 | 200,000 tested, 0.37% active | arbovirus infection cell-based antiviral screen;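 active = inhibition from about 30%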;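 note: bluetongue infection of BSR cells; cell survival read as ATP light after 72 h; 0% = infected wells without compound and 100% = uninfected wells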
Arbovirus anti repeat: second read-out of Arbovirus anti, no call of its own (marks repeat the call); inhibition, %; measured here: 10K subset replicate screen; many hits read low in the repeat;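 first of two repeat runs on a subset; 0% = infected and 100% = uninfected wells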
* marks the source's active call; other numbers are inactive results; ? = inconclusive; . = no result given.

SMILES | RecA intein inh | YopH PTP inh | Mtb H37Rv | Mtb betalactam | Arbovirus anti | others
COc1ccc(-c2ccnc3[nH]n(-c4ccccc4)c(=O)c23)cc1 | -4.8 | . | . | 4 | .
Cc1ccc2nc(-c3ccncc3)cc(C(=O)N3CCC4(CC3)OCCO4)c2c1 | . | -21 | -10% | 6 | -7
COc1cc(/C=C2\SC(=Nc3ccccc3)NC2=O)cc(Cl)c1O | 1.5 | . | . | 6 | .
COc1ccc(Cl)cc1NC(=O)CN1c2ccccc2CC1C (stereo unspecified) | 2.7 | . | 0% | -2 | 7
Nc1nnc(SCc2cn3cc(Cl)ccc3n2)s1 | -0.1 | . | -6% | -14 | -3
Cc1nc(SCc2cccc(F)c2)[nH]c(=O)c1C#N | . | -11 | -5% | -12 | 0
CC(=O)Nc1ccc(S(=O)(=O)NNC(=O)NC23CC4CC(CC(C4)C2)C3)cc1 | -0.8 | . | . | 7 | .
N#Cc1c(NC(=O)CSc2nnc(-c3ccccc3)o2)sc2c1CCCC2 | 0.1 | -30 | 4% | 22 | 32*
CSc1ccccc1OCc1cc(C(=O)NC(C)Cc2cccc(C)n2)no1 (stereo unspecified) | 1.5 | . | . | ? | .
Cc1cccc(NC(=O)CSc2nccn2Cc2ccco2)c1C | -2.6 | . | . | 2 | .
O=C(Nc1ccc(Cl)cc1)C1CCC(=O)N1Cc1ccccc1Cl (stereo unspecified) | -0.5 | -36 | 9% | -5 | 8
O=C(Cc1cccs1)NCCn1ccc2ccccc21 | 4.4 | -31 | 3% | -2 | -2 | Arbovirus anti repeat=2
Cn1c(=O)c2c(ncn2CC(=O)Nc2ccc(Cl)cc2Cl)n(C)c1=O | -2.4 | -20 | -9% | -4 | -6
COCCn1c(SCC(=O)c2ccc3c(c2)OCCO3)nnc1-c1ccoc1C | 1.6 | -39 | 10% | 65 | 9
O=C(NCc1cccs1)C1CCN(S(=O)(=O)c2cccc3nsnc23)CC1 | -1.1 | -54 | -1% | -4 | 4
CCOC(=O)c1nc(C)[nH]c1C(=O)OCC | 5.5 | 8 | -1% | 5 | -3
COc1ccccc1NS(=O)(=O)c1ccc(C)c(C(=O)NCCCN2CCCC2=O)c1 | -3.7 | . | . | -8 | .
O=C(Nc1ccc(-n2cnnn2)cc1)C1CCCN1C(=O)NC1CCCCC1 (stereo unspecified) | 1.1 | -14 | -14% | 1 | -3
CC(/C=C/c1ccccc1)=N/NC(=O)c1cccc(Br)c1 | 2.6 | . | ? | 98 | -8
O=S(=O)(c1cc(Br)ccc1Br)N1CCCCCC1 | -1.9 | . | . | 0 | .
Cc1ccc2nc(Nc3ncc4c(n3)CC(C)(C)CC4=O)nc(C)c2c1 | 0.7 | . | -1% | 7 | 5
CCOC(=O)c1cc2c(=O)[nH]ccc2nc1C | 1.9 | -8 | 1% | -3 | 1
CCOC(=O)CSc1nc2c(c(=O)n(C)c(=O)n2C)n1CCCc1ccccc1 | 8.8 | -32 | -3% | . | 2
COCCOC(=O)C1=C(C)NC2=C(C(=O)CC(C)(C)C2)C1c1ccc2c(c1)OCO2 (stereo unspecified) | . | -21 | 3% | -2 | 1 | Arbovirus anti repeat=-5
Cc1ccc(-c2cc(C(=O)NCc3cnn(C)c3C)c3cc(Br)ccc3n2)cc1 | 2.1 | -10 | -8% | 17 | -9
CC1(C)OC(=O)C(=C2CCCN2)C(=O)O1 | -1.9 | -15 | . | 3 | 1 | Arbovirus anti repeat=6
CCCCCNC(=O)Cc1ccc(OC)cc1 | -3.3 | -34 | -1% | -2 | -3
COC(=O)c1cc(=O)n(Cc2ccccc2)c(=NCc2ccccc2)s1 | . | . | -7% | 14 | -3
CCCCC/C=N/NC(=O)c1[nH]c2ccc([N+](=O)[O-])cc2c1C | -5.1 | . | 10% | 40 | .
COc1cccc(N2CC(NS(=O)(=O)c3ccc4ccccc4c3)CC2=O)c1 (stereo unspecified) | 0.7 | . | . | -4 | .

Pulled one by one from above (6):
SMILES | RecA intein inh | YopH PTP inh | Mtb H37Rv | Mtb betalactam | Arbovirus anti | others
O=C(Nc1ccc(Cl)cc1)C1CCC(=O)N1Cc1ccccc1Cl (stereo unspecified) | -0.5 | -36 | 9% | -5 | 8
O=C(Cc1cccs1)NCCn1ccc2ccccc21 | 4.4 | -31 | 3% | -2 | -2 | Arbovirus anti repeat=2
Cc1ccc2nc(Nc3ncc4c(n3)CC(C)(C)CC4=O)nc(C)c2c1 | 0.7 | . | -1% | 7 | 5
COc1ccc(Cl)cc1NC(=O)CN1c2ccccc2CC1C (stereo unspecified) | 2.7 | . | 0% | -2 | 7
COc1ccc(-c2ccnc3[nH]n(-c4ccccc4)c(=O)c23)cc1 | -4.8 | . | . | 4 | .
COCCn1c(SCC(=O)c2ccc3c(c2)OCCO3)nnc1-c1ccoc1C | 1.6 | -39 | 10% | 65 | 9

Later entries:
SMILES | RecA intein inh | YopH PTP inh | Mtb H37Rv | Mtb betalactam | Arbovirus anti | others
C/C(=N\Nc1ccccn1)c1ccc(Br)s1 | 8.2 | . | . | 56 | .
COc1ccc(C(=O)Nc2ccc(S(=O)(=O)NC(C)=O)cc2)cc1 | 1.8 | -18 | -10% | -15 | 3
O=C(OCc1nc2ccccc2[n+]([O-])c1C(=O)c1ccccc1)c1cccs1 | -2.5 | -47 | -1% | 0 | 1
CC(C)(C)C(=O)Cn1c(NCCO)nc2ccccc21 | -0.7 | -9 | -2% | 6 | 2
Cc1ccc(S(=O)(=O)N(CC(=O)Nc2cccnc2)c2cccc(Br)c2)cc1 | 6.9 | . | . | 11 | .
OCCN1CCN(c2ncnc3c2c(-c2ccccc2)cn3-c2ccc(Br)cc2)CC1 | 5.8 | . | 0% | 65 | -34
COc1ccc(-c2cn(-c3ccc(OC)cc3)c(=S)[nH]2)cc1 | 1.7 | -9 | -2% | 63 | 0
O=C(Cc1ccc(Cl)cc1)NCC(=O)N1CCCCCC1 | -1.1 | . | . | -9 | .
CN(C)/C=N/c1sccc1C(N)=O | -2.0 | -16 | 7% | 12 | 1
CCO[C@@H]1OC(C(=O)N2CCN(Cc3ccc4c(c3)OCO4)CC2)=C[C@H](c2ccc(C(F)(F)F)cc2)[C@H]1CCCO | -6.4 | . | 43% | 94 | -17
COc1ccc(-c2nn(C)c(=O)c3ccccc23)cc1CNS(C)(=O)=O | 5.1 | -109 | 0% | -17 | -4
CS(=O)(=O)Nc1ccc(Oc2ncccn2)cc1 | -0.9 | . | . | -5 | .
Oc1ccc(/C=N/NC2=NCCCCC2)c(O)c1 | -9.2 | -9 | -9% | -9 | -14
O=C(c1ccccc1)c1ccc(OCCOCCN2CCN(Cc3ccccc3)CC2)cc1 | -1.2 | . | 69% | 95 | 12
COc1cc(C2SCC(=O)N2CCc2ccc(OC)c(OC)c2)ccc1O (stereo unspecified) | -0.4 | . | 0% | -11 | 4
CCOC(=O)CCC(=O)Nc1ccc(S(=O)(=O)N2CCCCC2)cc1 | -1.5 | . | -6% | -9 | 0
CC(=O)c1ccc(OCc2cc(C(=O)N(C)CCN3CCOCC3)no2)cc1 | -0.6 | . | . | -9 | .
Cc1cccc(C(=O)O/N=C/c2c(N3CCOCC3)n(C)c3ccccc23)c1 | -2.2 | -32 | -1% | 50 | -11
COCCN1CCc2c(C)nc3c(-c4ccc(OC)c(OC)c4)cnn3c21 | -2.4 | -28 | 1% | 89 | -1
COc1ccc(NC(=O)CN(C)S(=O)(=O)c2cccc3nsnc23)cc1 | 0.4 | . | 3% | 0 | 8
CCc1cc(=O)oc2c(CNCc3c(F)cccc3Cl)c(O)ccc12 | -69 | . | . | 1 | .
O=C(CSc1nc2ccccc2c(=O)n1-c1ccc(F)cc1F)Nc1ccc2c(c1)CCC2 | 1.1 | -25 | 6% | -8 | -3
Cc1cc[n+](CC(=O)N2CCCc3ccccc32)cc1 | -1.1 | . | -4% | -4 | -1
CCCCN(C(=O)CCC(=O)Nc1cc(C)on1)C(C(=O)NC(C)(C)C)c1cccc(OC)c1OC (stereo unspecified) | -1.0 | -1 | 1% | -11 | -8
Nc1c(/C=C2\C=Nc3ccccc32)c(=O)nc2sc(CC(=O)N3CCOCC3)nn12 | -0.6 | . | . | 2 | .
Cc1ccc(S(=O)(=O)NCCOC(=O)Nc2sc(=S)n(C)c2C)cc1 | -2.2 | -9 | 2% | 4 | 2 | Arbovirus anti repeat=-3
CS(=O)(=O)c1ccc(Cl)c(NC(=O)C2CC(=O)N(Cc3ccco3)C2)c1 (stereo unspecified) | 1.7 | . | . | -10 | .
COC(=O)C1=C(C)Nc2nc3ccccc3n2C1c1cc(OC)c(OC)c(OC)c1 (stereo unspecified) | -4.2 | . | 8% | -2 | .
COC(=O)c1cc(COc2ccc3oc(C)c(C(=O)OC(C)C)c3c2)c(C)o1 | 10 | -10 | 17% | 97 | 1
CCCC[C@H]1COCCS(=O)(=O)N1Cc1cccc(Cl)c1 | 2.2 | . | . | 0 | .
N#CCSc1nnc(-c2cnccn2)n1Cc1ccccc1 | 0.3 | -15 | -3% | -3 | 1
Cc1ccc(C(CC(=O)c2ccco2)SCCO)cc1 (stereo unspecified) | 2.2 | 7 | -13% | 93 | 3
COc1ccc(C2NC(=S)NC(C)=C2C(=O)Nc2ccccn2)cc1OC (stereo unspecified) | 1.1 | -11 | -6% | -4 | 3
Cc1ccc(S(=O)(=O)N(C)Cc2ccc(C(=O)NN=C3C4CC5CC(C4)CC3C5)cc2)cc1 | 1.1 | -39 | -5% | 1 | -11
CCC(CC)C(=O)Nc1cc(C)c2c(=O)oc3ccccc3c2n1 | 0.0 | -8 | 48% | 8 | 2 | Arbovirus anti repeat=-3
CCSc1nc(-c2cccs2)nc2ccccc12 | 2.6 | . | 4% | 9 | 4
CNC(=O)COC(=O)c1cc(F)c(F)cc1Cl | 0.5 | 6 | 4% | 65 | 8
CCOC(=O)c1c(C)[nH]c(C)c1S(=O)(=O)N(C)CC(=O)Nc1ccccc1C | -2.5 | . | . | 1 | .
COc1ccc(C(=O)Nn2c(CC(C)C)nc3cc(OC)c(OC)cc3c2=O)c(OC)c1 | -0.5 | . | . | 7 | .
Cc1ccc(S(=O)(=O)N2CCC(=O)N(CCO)CC2)cc1 | -1.9 | -28 | -4% | -4 | 1
COc1ccc(-c2nc3ccc(N4CCN(C)CC4)cc3c(=O)[nH]2)cc1 | -12 | . | 3% | 2 | -3
CCOc1cc(/C=C\c2nc(O)c([N+](=O)[O-])c(=O)[nH]2)ccc1OC(C)C | -2.8 | . | . | 2 | .
Cc1nccn1CCCNCc1c(C(=O)N2CCCCCCC2)nc2ccc(Cl)cn12 | -1.5 | . | -3% | -5 | 3
Cc1sc(NC(=O)C2=COCCO2)nc1-c1ccc(Br)cc1 | 1.9 | . | . | -2 | .
COCCN(C(=S)Nc1c(C)cccc1C)C(C)c1cccnc1 (stereo unspecified) | 0.6 | -16 | -4% | 3 | -3
CCOc1ccccc1/C=N/Nc1nc2c(N)ncnc2n1[C@H]1O[C@@H](CO)[C@H](O)[C@@H]1O | -5.0 | . | 1% | -6 | .
CCOC(=O)C1CCN(C(=O)C(C)Oc2ccc(Br)cc2)CC1 (stereo unspecified) | 0.8 | . | -3% | 2 | 8
Cc1nn(Cc2ccc(F)cc2)c(C)c1NC(=O)c1cnn2cccnc12 | -0.8 | 0 | -5% | -1 | 5
COc1ccc(-n2nc3c(N4CCC(C(=O)NC5CCCCC5)CC4)nnc(C)c3c2C)cc1 | -2.3 | . | . | -3 | .
CCc1ccc(-c2ccc3nnc(SCC(=O)NCC4CCCO4)n3n2)cc1 (stereo unspecified) | -2.4 | . | . | -8 | .
Remaining list, next part:
SMILES | RecA intein inh | YopH PTP inh | Mtb H37Rv | Mtb betalactam | Arbovirus anti | others
CN(c1cnn(-c2ccccc2)c(=O)c1Cl)n1cccc1 | -0.4 | . | . | -7 | .
COc1ccc(C(CNC(=O)Cc2ccccc2)N2CCCCC2)cc1 (stereo unspecified) | 2.0 | . | . | -6 | .
O=C(NCc1ncc(C(F)(F)F)cc1Cl)Nc1ccccc1 | -1.3 | . | . | 0 | .
Cc1ccc(OCC(=O)N2CCOCC2)cc1C | -3.7 | -17 | -1% | -13 | 9
Cc1cccc(C(=O)NCC(c2ccc(F)cc2)N2CCOCC2)c1 (stereo unspecified) | -0.5 | . | 1% | 5 | 8
O=C(CN1C(=O)c2ccccc2C1=O)Nc1ccccc1C(=O)NC1CCCCCC1 | . | -9 | -2% | -14 | 3
Cc1ccc(/C=N/NC(=O)C2COc3ccccc3O2)s1 (stereo unspecified) | -2.4 | . | . | 100 | .
COc1ccc(C2c3[nH]c4ccccc4c3CCN2CCCn2cccn2)c(F)c1 (stereo unspecified) | -3.7 | . | -1% | -5 | .
Cc1noc(-c2ccccc2)c1NC(=O)Nc1ccccc1 | . | . | -13% | -7 | .
O=C1c2cccc3cccc(c23)N1Cc1cccc(F)c1 | -13 | . | . | 3 | .

Only part of the results is shown, so the mix of outcomes need not match the whole.
